# Compound activity deposited in PubChem by Broad Institute.
# MLL AF4-AF9 inh = inhibitors of human MLL-AF4/AF9 interaction; inhibition, % at 10 µM; 0.47% of 350,000 active; P42568; AlphaScreen, biotin-AF4 peptide binding to FLAG-AF9;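 active = every replicate reaching a set inhibition limit, whatever the replicate mean, cut at about 25% in these data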;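 note: 0% = plate neutral control median and 100% = total signal loss; the record names both 10 and 1 µM as test concentration; the first replicate is given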
# Target sequence (P42568 whole entry, looked up): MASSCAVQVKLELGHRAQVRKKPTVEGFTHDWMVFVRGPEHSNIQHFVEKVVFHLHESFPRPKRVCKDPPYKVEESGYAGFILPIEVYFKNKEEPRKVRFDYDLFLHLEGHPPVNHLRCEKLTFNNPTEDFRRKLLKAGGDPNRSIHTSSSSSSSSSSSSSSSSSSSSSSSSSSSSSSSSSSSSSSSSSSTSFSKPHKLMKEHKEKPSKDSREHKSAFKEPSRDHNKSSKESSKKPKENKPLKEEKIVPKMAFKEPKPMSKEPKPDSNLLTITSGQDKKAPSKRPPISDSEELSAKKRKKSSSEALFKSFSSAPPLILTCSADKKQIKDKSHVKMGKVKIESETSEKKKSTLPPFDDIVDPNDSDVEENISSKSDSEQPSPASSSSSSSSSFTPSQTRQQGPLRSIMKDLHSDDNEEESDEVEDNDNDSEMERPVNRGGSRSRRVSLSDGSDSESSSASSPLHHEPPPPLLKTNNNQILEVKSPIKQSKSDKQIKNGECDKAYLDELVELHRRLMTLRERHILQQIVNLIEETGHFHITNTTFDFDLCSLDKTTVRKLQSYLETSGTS
# Active calls of the source: *; & = joins results of further samples. The list is partial; count on the stated rates, not on these rows.
SMILES,MLL AF4-AF9 inh
C[C@@H]1CCCCO[C@@H](CN(C)S(C)(=O)=O)[C@@H](C)CN([C@H](C)CO)C(=O)c2cc(NS(=O)(=O)c3ccc(Cl)cc3)ccc2O1,-6.5
CC(C)NC(=O)Nc1cccc2c1O[C@H](CN(C)Cc1ccncc1)[C@H](C)CN([C@H](C)CO)C2=O,-2.0
C[C@@H](NC(=O)C[C@@H]1C[C@H]2c3cc(NC(=O)CC4CC4)ccc3O[C@H]2[C@H](CO)O1)c1ccccc1,-1.6
COCCNC(=O)[C@H]1[C@H](CO)[C@H]2Cn3c(ccc(-c4ccc(F)cc4)c3=O)[C@@H]1N2C,-1.8
CCC(=O)N1CC[C@@H]2[C@@H](CO)Nc3ccc(-c4ccccc4)cc3[C@@H]21,4.7
Cc1ccc(S(=O)(=O)N2CCC(=O)N([C@H](COCc3cccc(C)c3)C(C)C)CC2)cc1,-6.8
Cc1noc(C)c1NC(=O)Nc1cccc2c1O[C@@H](CN(C)Cc1ccc(Cl)c(Cl)c1)[C@H](C)CN([C@@H](C)CO)C2=O,-0.8
C[C@@H]1CN([C@H](C)CO)C(=O)c2cccc(NC(=O)Nc3ccc4c(c3)OCO4)c2O[C@@H]1CN(C)Cc1ccc(C(F)(F)F)cc1,2.9
N#C[C@H]1[C@@H](c2ccc(C3=CCCCC3)cc2)[C@@H](CO)N1C(=O)Cc1ccncc1,-2.3
C[C@H]1CN([C@@H](C)CO)C(=O)c2cc(C#Cc3ccccc3F)cnc2O[C@H]1CN(C)C(=O)Cc1cccnc1,-5.9
Cc1ccc(S(=O)(=O)Nc2ccc3c(c2)C(=O)N([C@H](C)CO)C[C@@H](C)[C@@H](CN(C)Cc2ccncc2)O3)cc1,-5.8
O=C(Nc1cccc(C(=O)N2CCOCC2)c1)C1CCCCC1,-4.5
CCOC(=O)C1(C)CCN1C(=O)c1ccc2c(c1)CCO2 (centres undefined),0.3
COc1ccc(NC(=O)Nc2ccc3c(c2)C(=O)N([C@@H](C)CO)C[C@H](C)[C@H](CN(C)C(=O)C2CCCCC2)OCCCC[C@@H](C)O3)cc1,-1.4
COc1ccc2c3c([nH]c2c1)[C@@H](CO)N(Cc1ccccn1)CC31CN(C(=O)c2ccccn2)C1,-1.4
O=C(Nc1cc(F)ccc1F)N[C@H]1CC[C@H](CCNC(=O)c2cnccn2)O[C@@H]1CO,-4.9
CC(=O)N(C)C[C@@H]1Oc2cc(-c3cccc(C#N)c3)ccc2S(=O)(=O)N([C@H](C)CO)C[C@H]1C,0.8
C[C@H](CO)N1C[C@H](C)[C@@H](CN(C)CC2CC2)Oc2ccc(NC(=O)CCC(F)(F)F)cc2CC1=O,-1.8
N#Cc1ccc(-c2ccc3c(c2)[C@@H]2[C@@H](CCN2C(=O)CN2CCOCC2)[C@@H](CO)N3)cc1,1.7
CCC(=O)N1[C@H](C(=O)NCCCN(C)C)[C@@H](CO)[C@@H]2Cn3c(ccc(-c4ccccc4F)c3=O)[C@@H]21,-2.2
Cc1noc(C)c1NC(=O)Nc1cccc2c1O[C@H](CN(C)Cc1ccncc1)[C@@H](C)CN([C@@H](C)CO)C2=O,-2.4
CN(C)C(=O)c1ccc(-c2ccccc2[C@@H]2[C@@H](C#N)N(C(=O)C3CC3)[C@H]2CO)cc1,-6.0
C[C@H](CO)N1C[C@H](C)[C@@H](CN(C)Cc2ccc(Cl)c(Cl)c2)Oc2ccc(NC(=O)CCN3CCOCC3)cc2C1=O,2.7
COc1ccc(NC(=O)N[C@H]2CC[C@H](CCNC(=O)c3ccccc3F)O[C@H]2CO)cc1,-2.2
C=CCNc1nc(-c2sc(NC(=O)C(C)(C)C)nc2C)c(-n2cc(-c3ccccc3)nn2)s1,0.6
COCCNc1nc(Nc2ccccc2Cl)c2sccc2n1,0.0
COc1ccc(C(C)(NC(C)=O)c2nc(-c3cccc(C(=O)O)c3)cs2)cc1 (centres undefined),-0.5
CC(C)NC(=O)N1C[C@H]2[C@@H](c3ccccc31)[C@@H](CO)N2C(=O)c1ccccc1,-0.2
Cc1noc(C)c1S(=O)(=O)N(C)C[C@@H]1Oc2ccc(NC(=O)Nc3ccc(F)cc3)cc2CC(=O)N([C@H](C)CO)C[C@@H]1C,0.0
C[C@@H]1CN([C@@H](C)CO)C(=O)c2cc(NC(=O)CCN3CCOCC3)ccc2O[C@@H]1CN(C)Cc1ccc(-c2ccccc2)cc1,9.5
CCNC(=O)C[C@H]1CC[C@@H]2[C@H](COC[C@@H](O)CN2C(=O)C2CCOCC2)O1,-0.8
CCOC(=O)[C@]12CCC=C1N(Cc1ccco1)C(=O)[C@H](CC(=O)N1CCSCC1)C2,-3.9
COCC(=O)N1CC2(C1)CN(C(=O)NC1CCCC1)[C@H](CO)c1c2c2ccc(OC)cc2n1C,-1.1
C[C@@H]1CCCCO[C@@H](CN(C)S(=O)(=O)c2ccccc2)[C@H](C)CN([C@@H](C)CO)C(=O)c2cc(N(C)C)ccc2O1,0.2
Cc1noc(C)c1NC(=O)N(C)C[C@@H]1Oc2cc(C#CCC3CCCC3)ccc2S(=O)(=O)N([C@H](C)CO)C[C@@H]1C,20
CN1CCN(C(=O)C[C@H]2C[C@H]3c4cc(NC(=O)Nc5ccc(C(F)(F)F)cc5)ccc4O[C@H]3[C@H](CO)O2)CC1,18
CCCNC(=O)C[C@@H]1CC[C@H]2[C@@H](COC[C@@H](O)CN2C(=O)CC)O1,-4.6
COc1cccc(S(=O)(=O)N2C[C@@H]3N[C@H](C2)C3c2ccc(-c3ccccc3C)cc2)c1 (some centres undefined),-4.4&0.3
C[C@@H]1CN([C@H](C)CO)C(=O)Cc2cc(NC(=O)Nc3ccc4c(c3)OCO4)ccc2O[C@H]1CN(C)Cc1ccc(C(=O)O)cc1,-2.5
CCCNC(=O)Nc1ccc2c(c1)OC[C@H](C)N(Cc1cncnc1)C[C@@H](C)[C@H](OC)CN(C)C2=O,-1.3
COc1ccc(NC(=O)Nc2cccc3c2O[C@H](CN(C)Cc2ccccc2)[C@@H](C)CN([C@H](C)CO)C3=O)cc1,1.8
COc1ccc2c3c([nH]c2c1)[C@@H](CO)N(C(C)=O)CC31CCN(C(=O)Nc2ccc(F)cc2F)CC1,-4.2
N#Cc1ccc(NC(=S)N2CCC3CC2c2cc(-c4ccc5c(c4)OCO5)ccc23)cc1 (centres undefined),1.1
CCC(=O)N1C[C@@H](C)[C@H](OC)CN(C)C(=O)c2cc(NS(C)(=O)=O)ccc2OC[C@H]1C,-0.7
COc1ccc(NC(=O)Nc2ccc3c(c2)C(=O)N([C@@H](C)CO)C[C@@H](C)[C@@H](CN(C)C(=O)Nc2cccc4ccccc24)OCCCC[C@@H](C)O3)cc1,1.4
CCCNC(=O)N1[C@H](CO)[C@H](c2ccccc2)C12CN(C(=O)C1CCCCC1)C2,-0.7
C[C@@H]1CN([C@H](C)CO)C(=O)c2cc(NC(=O)CCCN(C)C)ccc2O[C@@H]1CN(C)C,-6.5
COC(=O)c1ccc(Cn2c(C)c(C(=O)NCc3cccc([N+](=O)[O-])c3)sc2=O)o1,-1.6
CO[C@@H](CN(C)C(=O)Nc1ccc(F)cc1)[C@H](C)CN(Cc1ccccc1Cl)[C@H](C)CO,0.8
CCCNC(=O)N(C)C[C@H]1Oc2cc(-c3ccccc3F)ccc2S(=O)(=O)N([C@H](C)CO)C[C@H]1C,-1.1
O=C(C1CCOCC1)N1CC(=O)N2[C@H](C1)[C@H](c1ccc(C#CC3CCCCC3)cc1)[C@@H]2CO,3.7
CN1C(=O)c2cc(NC(=O)c3cnccn3)ccc2OC[C@@H]2O[C@H](CC(=O)NCC3CCCCC3)CC[C@H]21,-5.0
C[C@@H]1CN([C@H](C)CO)C(=O)Cc2cc(NC(=O)C3CCCCC3)ccc2O[C@@H]1CN(C)CC1CC1,1.6
O=C(C[C@@H]1C[C@H]2c3cc(NC(=O)Nc4ccccc4)ccc3O[C@H]2[C@@H](CO)O1)NCc1ccccn1,-0.9
O=C(C[C@@H]1CC[C@H]2[C@@H](COC[C@H](O)CN2S(=O)(=O)c2ccc(Cl)cc2)O1)NCCN1CCCC1,-8.5
CCN1[C@@H]2c3ccc(-c4ccccc4OC)c(=O)n3C[C@H]1[C@H](CO)[C@H]2C(=O)N[C@@H](C)c1ccccc1,0.5
C[C@@H]1CCCCO[C@H](CN(C)C(=O)NC2CCCCC2)[C@H](C)CN([C@H](C)CO)C(=O)c2cc(NS(=O)(=O)c3cccs3)ccc2O1,-3.0
CCCC(=O)N1CC2(C1)CN(Cc1ccc(Cl)cc1)[C@@H](CO)c1[nH]c3cc(OC)ccc3c12,3.0
C[C@@H]1CCCCO[C@H](CN(C)C(=O)Nc2ccc(C(F)(F)F)cc2)[C@@H](C)CN([C@H](C)CO)C(=O)c2cc(NC(=O)Nc3ccc(F)cc3)ccc2O1,1.1
CCN1[C@@H]2c3ccc(-c4ccccc4OC)c(=O)n3C[C@@H]2[C@@H](CO)[C@@H]1C(=O)N(C)C,0.6

# (listing goes on)
SMILES,MLL AF4-AF9 inh
CO[C@H]1CN(C)C(=O)c2ccc(NC(=O)NC(C)C)cc2OC[C@@H](C)N(C)C[C@@H]1C,-1.6
Cc1noc(C)c1NC(=O)Nc1ccc2c(c1)C(=O)N([C@@H](C)CO)C[C@H](C)[C@H](CN(C)C)O2,-4.1
C[C@@H]1CCCCO[C@@H](CN(C)S(=O)(=O)c2ccc(Cl)cc2)[C@@H](C)CN([C@H](C)CO)C(=O)c2cc(NC(=O)CCCN(C)C)ccc2O1,0.3
CN(C)C(=O)c1cccc(-c2ccc([C@@H]3[C@H](C#N)N(C(=O)C4CCC4)[C@H]3CO)cc2)c1,-0.9
OC(c1cccc(Cl)c1)c1ncc(-c2cccc3ccccc23)[nH]1 (centres undefined),4.6
C[C@H](CO)N1C[C@H](C)[C@@H](CN(C)C(=O)NC2CCCC2)Oc2ncc(Br)cc2C1=O,-2.6
COc1ccc(S(=O)(=O)Nc2ccc3c(c2)C(=O)N([C@@H](C)CO)C[C@@H](C)[C@@H](CN(C)S(=O)(=O)c2ccc(F)cc2)OCCCC[C@H](C)O3)cc1,-2.9
Cc1noc(C)c1NC(=O)N(C)C[C@H]1Oc2ccc(NC(=O)CCN3CCOCC3)cc2C(=O)N([C@H](C)CO)C[C@H]1C,-1.5
COc1ccc2c3c(n(C)c2c1)[C@@H](CO)NCC31CCN(C(=O)Nc2ccc3c(c2)OCO3)CC1,13
CC(C)NC(=O)N1[C@H](CO)[C@@H]2c3ccccc3N(C(=O)c3ccncc3)C[C@@H]21,2.1
CCOC(=O)C1CCCN(C(=O)C2CCN(Cc3nc(-c4ccc(Cl)cc4)oc3C)CC2)C1 (centres undefined),11
O=C(c1cnccn1)N1CC(=O)N2[C@H](CO)[C@@H](c3ccc(C4=CCCCC4)cc3)[C@@H]2C1,4.0
CN1CCN(C(=O)C(=O)c2cn(CC(=O)N3CCOCC3)c3ccccc23)CC1,1.4
C[C@@H]1CN([C@H](C)CO)C(=O)Cc2cc(NS(=O)(=O)c3ccc(F)cc3)ccc2O[C@@H]1CN(C)C(=O)Nc1ccc(F)cc1,-3.3
C[C@H]1CN([C@@H](C)CO)C(=O)c2cccc(NC(=O)Nc3ccc4c(c3)OCO4)c2O[C@H]1CN(C)C(=O)Nc1ccc2c(c1)OCO2,8.6
C/C=C/c1cnc2c(c1)C(=O)N([C@H](C)CO)C[C@@H](C)[C@@H](CN(C)S(=O)(=O)c1ccc(F)cc1)O2,-3.8
O=C(N[C@H]1CC[C@@H](CCNS(=O)(=O)c2ccccc2)O[C@@H]1CO)c1cccnc1,-2.0
CS(=O)(=O)N1CC(=O)N2[C@H](C1)[C@@H](c1ccc(C#CCc3ccccc3)cc1)[C@@H]2CO,2.4
C[C@@H]1CN([C@H](C)CO)C(=O)Cc2cc(NS(=O)(=O)c3ccc(Cl)cc3)ccc2O[C@H]1CN(C)S(=O)(=O)c1ccccc1,-0.6
Cc1ccccc1S(=O)(=O)NC(=O)C1(C)CCN1C(=O)Cc1ccc(C(C)(C)C)cc1 (centres undefined),-0.2
CCN(C(=O)COC(=O)CNC(=O)c1cccs1)c1c(N)n(Cc2ccccc2)c(=O)[nH]c1=O,1.3
C/C=C/c1ccc2c(c1)O[C@H](CN(C)C(=O)Nc1ccc(C(F)(F)F)cc1)[C@@H](C)CN([C@H](C)CO)S2(=O)=O,2.3
CO[C@@H]1CN(C)C(=O)c2ccc(NC(=O)c3ccc4c(c3)OCO4)cc2OC[C@@H](C)N(CCC(F)(F)F)C[C@H]1C,4.1
C[C@@H](NC(=O)C[C@@H]1CC[C@H]2[C@@H](COC[C@@H](O)CN2Cc2cc(F)ccc2F)O1)c1ccccc1,1.3
O=C(C[C@@H]1CC[C@@H]2[C@H](COC[C@@H](O)CN2Cc2cccc(Cl)c2)O1)Nc1nccs1,2.0
